Bioassay records (PubChem)
Sa RN4220 lethal – kills Staphylococcus aureus RN4220. AID 1259311. inhibition, % (concentration not given with the values). 330,000 compounds, 0.33% hits. S. aureus RN4220 growth, OD600, 16 h;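 active means z-score of -3 or lower and OD600 up to 0.18 on both plates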;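 further: plate controls were untreated cells for no effect and reference antibiotic for full effect; stock transfer was 100 nL into about 80 µL; one replicate is shown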
PrP 5UTR inh – inhibition of PrP 5' UTR reporter expression; cell-based PrP 5' UTR mRNA reporter, plate reader; inhibition, % (concentration not given with the values); 340,000 compounds, 0.35% hits; AID 488862;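 active means every replicate at 50% or more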;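 further: 0 = median of the neutral control wells; tested in H4 reporter cells; numbers are from one replicate; inactives centre near -14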
Autofluor counter – compound fluorescence in toxin protease inhibitor counterscreen | compound autofluorescence counterscreen, microsphere flow cytometry; hits give high values | fluorescence intensity (no concentration beside the values) | 360,000 compounds, 3.1% hits | AID 624483;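 active means at least 3 SD above the mean of all compounds, about 16000 in these data; inconclusive means too few beads counted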;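 further: 100 nL of 1 mM stock went into each well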
Mtb hypoxia rep – Mtb hypoxia fluorescent reporter inhibition; M. tuberculosis hypoxia-regulated fluorescent reporter, fluorescence; fluorescence inhibition, % (test concentration not listed); 300,000 compounds, 0.1% hits; AID 1159583;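 active means 35 to 45% if threefold the growth effect, above 45% if 1.5-fold the growth effect; inactive means the rest, general growth blockers included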;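 further: wells of about 50 µL received 100 nL stock; 0% = vehicle wells and 100% = reference inhibitor wells; whole bacteria with a GFP reporter of the hypoxia response; strong numbers were not always called active; many hits fall short of the cut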
ugtP null kill – kills S. aureus RN4220 lacking UgtP; growth inhibition, % (no concentration beside the values); 330,000 compounds, 0.54% hits; S. aureus RN4220 ugtP deletion, OD600 growth, 16 h; some inactives read as strong as hits;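 active means z-score under -3 and OD600 up to 0.15 on both plates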;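 further: plate controls were untreated wells for no effect and antibiotic for full effect; wells of about 80 µL received 100 nL stock; the first replicate is given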
BJeLR viability – kills HRASV12-expressing BJeLR cells | BJeLR (HRASV12) viability, CellTiter-Glo ATP luminescence, 48 h; reference of the scale not given here | inhibition, % (test concentration not listed) | 300,000 compounds, 0.17% hits | AID 1554;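 active means replicate mean above 50%; inconclusive means above 50% but judged a plate artefact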;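 further: 50 nL library stock added to about 25 µL; numbers are from one replicate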
Mtb hypoxia rep growth – also measured in Mtb hypoxia rep; calls as there; growth inhibition, %; measured here: M. tuberculosis growth (absorbance);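 0% = vehicle and 100% = reference antibiotic; read after six days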
Active calls of the source: *; ? = inconclusive; nt = not tested or not shown. Compounds as they come. About 4% of those tested had a hit in this group.

SMILES | Sa RN4220 lethal | PrP 5UTR inh | Autofluor counter | Mtb hypoxia rep | Mtb hypoxia rep growth | ugtP null kill | BJeLR viability
O=c1c2ccccc2nc(-c2ccc([N+](=O)[O-])cc2)n1-c1ccccc1 | 1.0 | -14.1 | 10692 | 9.5 | -2.1 | 6.4 | 13.5
O=c1c2cnn(-c3ccccc3)c2ncn1Cc1ccccc1 | 1.5 | 9.9 | 7528 | nt | nt | 4.3 | -2.9
Cc1ccc(Cn2ccc(NC(=O)c3cc(-c4cccc(Cl)c4)on3)n2)cc1 | 1.8 | 9.3 | 10979 | -5.4 | -2.4 | 0.8 | -2.3
CCCCCCOc1ccc(N2C(=O)CC(N3CCC(C(=O)OCC)CC3)C2=O)cc1 (stereo not given) | 13.8 | -31.0 | 7972 | 4.3 | 2.4 | 9.8 | -0.9
CCOC(=O)CNC(=O)CSc1nnc(Cn2c(=O)sc3ccccc32)n1C | 0.7 | -2.7 | 4194 | nt | nt | -6.2 | -14.7
CCN(CC)S(=O)(=O)c1ccc(OC)c(NC(=O)c2ccc(N3CCCC3=O)cc2)c1 | 2.1 | -5.3 | 3634 | 6.6 | -4.1 | 1.2 | nt
O=C(NCc1ccc(Cl)cc1)c1cccc(NC2=NC3CS(=O)(=O)CC3S2)c1 (stereo not given) | -15.3 | -26.6 | 5179 | 13.9 | 9.4 | -3.7 | -2.6
CCc1ccc(S(=O)(=O)N/N=C\c2ccc3c(c2)OCO3)cc1 | nt | -25.2 | 4265 | nt | nt | nt | -5.1
N#Cc1nc(COc2ccc(F)cc2)oc1N1CCN(Cc2ccccc2)CC1 | 0.5 | -15.4 | 4287 | nt | nt | -7.4 | 0.2
COc1cccc(C2CC=C(C(=O)O)C(c3ccc(F)cc3)N2S(=O)(=O)c2ccc(C)cc2)c1 (stereo not given) | 15.7 | nt | nt | 16.2 | 8.6 | 24.5 | nt
O=C(NCCC(=O)N1CCC2(CC1)NCCc1[nH]cnc12)c1ccc(Br)cc1 | 4.4 | -8.7 | 5500 | 6.4 | 10.4 | 4.1 | -3.7
CS(=O)(=O)Nc1ccccc1C(=O)Nc1ccccc1Cl | 6.2 | -0.1 | 2298 | -1.3 | -3.8 | -4.2 | -1.2
FC(F)Oc1ccc(N=C2SCC3CCCCN23)cc1 (stereo not given) | -0.7 | -68.4 | 3502 | 9.8 | 10.1 | 3.8 | -4.9
Cc1cc([N+](=O)[O-])ccc1NC(=O)CCC(=O)N1CCCC1 | 3.0 | -24.6 | ? | 0.9 | 7.8 | 3.1 | -4.3
COc1ccc(OC)c(NC(=O)CSc2nnc(CNc3ccc(F)cc3)o2)c1 | -1.1 | -5.2 | 9884 | 9.8 | 4.3 | -0.5 | 1.9
CS(=O)(=O)Nc1cccc(S(=O)(=O)N2CCN(C(=O)c3ccccc3)CC2)c1 | 1.0 | -6.7 | 3258 | 0.6 | 8.5 | 17.7 | 0.9
CC(=O)Nc1ccc(S(=O)(=O)NCc2nnnn2-c2ccc(Cl)cc2)cc1 | -0.6 | -18.5 | ? | 4.1 | 7.4 | 3.2 | 0.9
Cc1cccc(OCC(=O)NCc2ccccc2)c1 | 8.5 | -16.3 | 3460 | nt | nt | 6.6 | -3.6
O=C(NCCN1CCOCC1)c1cccc(NS(=O)(=O)c2ccc(Br)cc2)c1 | 1.0 | -29.3 | ? | 2.2 | 5.9 | 3.4 | 0.0
Cn1nccc1NC(=O)Nc1cccc(Br)c1 | -2.5 | -6.0 | 3991 | -2.5 | 7.5 | -11.1 | -0.3
Cc1cc(C)c2ccc(Cl)cc2n1 | 2.5 | -13.3 | 4416 | 7.4 | 11.7 | 1.9 | -1.9
O=C(O)CCN1C(=O)C(=C2CCCCCC2)SC1=S | -2.1 | -20.5 | 3069 | 19.1 | 9.4 | -0.6 | 1.7
COc1ccc(-c2nc3ccccc3c(=O)n2CCCN2CCOCC2)cc1 | 6.0 | -17.0 | 7780 | 7.1 | 10.3 | 1.7 | -8.8
Cc1ccc(-c2nnc(N3CCOCC3)c3ccccc23)cc1S(=O)(=O)NCC1CCCO1 (stereo not given) | -7.8 | -9.4 | nt | 3.5 | 7.5 | -10.4 | -2.4
COc1cc(NC(=O)c2ccco2)c(OC)cc1NC(=O)CCC(=O)Nc1cc(C)ccc1C | 2.9 | -11.0 | 20046* | 2.2 | 3.4 | -6.1 | nt
CCCCC(Sc1nc(N)c(NC(=O)c2ccc(OCC)cc2)c(=O)[nH]1)C(=O)O (stereo not given) | 2.1 | -21.1 | 2686 | 3.8 | 5.5 | 7.1 | 3.4
O=C(CN1C(=O)C2C3C=CC(C3)C2C1=O)N1CC(=O)N(CCc2ccccc2)C(=O)C1 (stereo not given) | -2.5 | -18.9 | 2570 | nt | nt | 1.0 | 10.6
O=C(O)C1C2C=CC(C2)C1C(=O)NCCc1ccncc1 (stereo not given) | -1.8 | -39.6 | 8449 | -80.6 | -19.8 | -3.8 | -1.1
COc1ccc(-n2c(SCC(=O)Nc3ccc4c(c3)OCO4)nc3ccccc3c2=O)cc1 | 2.3 | -7.6 | 23540* | 0.2 | 7.3 | -7.1 | 1.4
CC(=O)c1cccc(NC(=O)CCc2nnc3ccc(NCc4ccco4)nn23)c1 | -4.4 | -17.9 | 6437 | -17.6 | -6.0 | -1.9 | -3.6
COc1cc2nc(NC(=O)c3ccccc3)sc(=O)c2cc1OC | -4.0 | -6.6 | 3053 | -2.9 | -8.7 | -5.9 | 34.2
FC(F)(F)c1ccc(-c2nnc(-c3cccnc3)o2)cc1 | 1.8 | -10.7 | 3073 | 14.3 | 4.2 | 4.7 | -1.3
O=C(NCc1cccnc1)c1cccn1-c1ncc(C(F)(F)F)cc1Cl | 1.1 | -25.8 | 4515 | 6.3 | 7.9 | 2.3 | 4.0
CCc1nnc(NC(=O)CSc2nnc(Cc3ccccc3)n2Cc2ccccc2)s1 | 7.5 | -3.7 | 3913 | 0.4 | 3.2 | -0.8 | -6.5
CN(Cc1c(C(=O)NN=Cc2cccc(F)c2)nnn1-c1nonc1N)c1ccccc1 | 5.7 | nt | nt | 9.3 | 2.9 | 0.7 | nt
Cc1nccn1CC(=O)NN=Cc1cccc(O)c1 | 2.8 | nt | nt | -2.0 | -4.2 | 5.4 | nt
C#CCn1c(=O)cc(C)c2ccccc21 | 3.2 | -6.0 | 3848 | -7.4 | 1.5 | 2.2 | 6.2
COc1ccc(NC(=O)c2nc3nccc(C)n3n2)cc1S(=O)(=O)N1CCOCC1 | 4.1 | -9.6 | 3664 | 9.7 | 3.8 | -6.6 | nt
O=C(O)c1nn(CC(=O)N2CCC(Cc3ccccc3)CC2)c(=O)c2ccccc12 | -0.3 | -24.2 | 3827 | 12.4 | 10.0 | 7.4 | -12.7
CC1(C)Cn2c(nnc2-c2cccc(O)c2)S1 | 0.6 | -6.1 | 10490 | -2.2 | 3.2 | 1.3 | 5.2

Complete entries, looked up by structure:
COc1ccc(NC(=O)c2nc3nccc(C)n3n2)cc1S(=O)(=O)N1CCOCC1 is entered as Sa RN4220 lethal = 4.1; PrP 5UTR inh = -9.6; Autofluor counter = 3664; Mtb hypoxia rep = 9.7; Mtb hypoxia rep growth = 3.8; ugtP null kill = -6.6; BJeLR viability = nt
FC(F)(F)c1ccc(-c2nnc(-c3cccnc3)o2)cc1 is entered as Sa RN4220 lethal = 1.8; PrP 5UTR inh = -10.7; Autofluor counter = 3073; Mtb hypoxia rep = 14.3; Mtb hypoxia rep growth = 4.2; ugtP null kill = 4.7; BJeLR viability = -1.3
O=C(O)c1nn(CC(=O)N2CCC(Cc3ccccc3)CC2)c(=O)c2ccccc12 is entered as Sa RN4220 lethal = -0.3; PrP 5UTR inh = -24.2; Autofluor counter = 3827; Mtb hypoxia rep = 12.4; Mtb hypoxia rep growth = 10.0; ugtP null kill = 7.4; BJeLR viability = -12.7

New compounds follow.
SMILES | Sa RN4220 lethal | PrP 5UTR inh | Autofluor counter | Mtb hypoxia rep | Mtb hypoxia rep growth | ugtP null kill | BJeLR viability
Cc1ccc(NC(=O)N2CCCC2)cc1Cl | 5.5 | -20.6 | 2006 | 2.7 | 4.1 | -4.3 | -10.2
CCS(=O)(=O)N1CCN(S(=O)(=O)c2ccc(F)cc2)CC1 | 4.1 | -9.1 | 2945 | 5.9 | 3.2 | 1.7 | -1.3
COc1ccc(CCNC(=O)CCc2ccc(S(=O)(=O)NC(C)C)cc2)cc1OC | 8.3 | -8.9 | 9349 | 7.4 | 8.3 | 1.0 | 14.4
c1cncc(CSc2nnc3ccc(-c4ccncc4)nn23)c1 | -3.7 | -1.6 | 4174 | -8.0 | 8.9 | -4.9 | -3.9
CCOC(=O)N1CCN(C(=O)c2cccc(NS(=O)(=O)c3ccc(F)c(F)c3)c2)CC1 | 3.4 | -7.9 | 7772 | 9.7 | 7.4 | 11.2 | -1.1
CC1CC(C)CN(S(=O)(=O)c2ccc(C(=O)NN3CCOCC3)cc2)C1 (stereo not given) | 1.5 | -7.5 | 2604 | -2.6 | 8.3 | -4.3 | -8.3
COCCCNC(=O)Cn1nnc(-c2ccc(NC(=O)c3ccccc3OC)cc2)n1 | 1.6 | -4.8 | 7120 | 0.5 | -0.6 | 3.3 | 3.1
O=C1Nc2ccccc2SC(c2ccccc2)C1O (stereo not given) | -3.0 | nt | 11086 | -9.5 | 0.0 | -11.3 | -15.5
Fc1ccccc1NC(=S)N(CCN1CCCCCC1)Cc1cccs1 | 3.3 | -9.3 | 4441 | -1.4 | 1.5 | -1.0 | -6.3
CCOC(=O)C1CCCN(Cc2ccccc2Cl)C1 (stereo not given) | 3.8 | -16.1 | 11242 | 9.8 | 7.9 | 6.9 | -5.8
CC(=O)c1ccc(OC(=O)CCc2nc3ccccc3s2)cc1 | 2.7 | -17.6 | 4987 | 4.2 | -2.8 | 0.3 | 4.7
Cc1ccc(S(=O)(=O)N2CCOCC2)cc1C(=O)NCc1ccc(F)cc1 | 6.8 | -26.1 | 11260 | 8.0 | 4.6 | 1.1 | -2.7
Cc1ccc2nc3c(cc(C(=O)NCCc4ccccc4)c(=N)n3CC3CCCO3)c(=O)n2c1 (stereo not given) | 0.4 | -27.3 | 4628 | 2.4 | -1.3 | 10.1 | 4.5
CC(C)(C)NC(=O)NC(=O)COC(=O)C1=COCCO1 | 7.2 | -13.9 | 3543 | 1.0 | -3.4 | 6.3 | 6.4
O=C(Nc1ccccc1)c1ccccc1OCC(O)CN1C(=O)c2ccccc2S1(=O)=O (stereo not given) | 0.9 | -14.3 | 10064 | 0.0 | 3.9 | -2.5 | -11.0
CC(=O)Nc1c(C(=O)N2CCCCCC2)cnn1-c1ccccc1Cl | 1.0 | -17.6 | 8869 | 5.6 | 8.1 | -2.6 | -7.0
CCNc1nc(N2CCOCC2)nc(N(c2ccccc2)c2ccccc2)n1 | -2.4 | -22.8 | 10403 | 4.0 | 1.9 | -6.8 | -8.6
CC(C)(C)C(=O)Nc1ccc(S(=O)(=O)Nc2ccccn2)cc1 | 1.4 | -13.1 | 3247 | 8.7 | -3.9 | -2.7 | 2.1
CCS(=O)(=O)N1Cc2ccccc2CC1C(=O)Nc1cccc(C)c1 (stereo not given) | 8.9 | -39.4 | 3584 | 4.9 | 8.1 | 2.6 | 4.7
O=C(O)c1ccc(-c2ccc(-c3ccccc3)cc2)s1 | nt | 35.4 | 4036 | nt | nt | nt | -3.8
Cc1cccc(C)c1NC(=O)CN(C)C(=O)CC1OC(=O)c2ccccc21 (stereo not given) | 1.2 | -21.9 | 4384 | 4.2 | -9.3 | 1.0 | 3.4
CCCNC(=O)Cn1c(=O)cnc2ccccc21 | 3.7 | 11.1 | 1949 | 1.7 | 8.9 | -1.7 | 9.0
COc1ccccc1N1CCN(C(=O)c2cc3c(=O)n4cccc(C)c4nc3s2)CC1 | -0.5 | -9.4 | 3974 | -10.5 | -1.3 | 1.9 | -0.7
O=C(COc1ccccc1)NN=Cc1ccc2c(c1)OCO2 | 6.5 | nt | nt | 11.7 | 3.1 | -10.3 | nt
CCC(C)NC(=O)Cn1c(=O)n(-c2ccc(OC)cc2)c(=O)c2ccc(C(=O)NCc3ccc(C)cc3)cc21 (stereo not given) | 8.8 | -8.4 | 1990 | 13.9 | -5.1 | 2.9 | -4.6
COc1ccc(-c2ccc(OC)cc2C(=O)O)cc1 | 1.2 | -13.5 | 7561 | -81.2 | -10.9 | -0.2 | 4.1
